Assay outcomes as filed in PubChem BioAssay.
NPYLR7 ag: agonists of mosquito NPYLR7 receptor, primary screen, cell-based, Aedes aegypti, calcium fluorescence, mosquito biting behavior; Aedes aegypti neuropeptide Y-like receptor 7 (NPYLR7); HEK293T NPYLR7/Galpha15, GCaMP6s calcium fluorescence; AID 1259423, 2018; activation, % at 10 µM; 0.15% of 270,000 active; in the data active = activation above about 40%;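 also: 0% = vehicle and 100% = reference agonist at the receptor; some compounds past the cut are filed as inactive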
NPYLR7 ag max-min: further read-out of NPYLR7 ag, marked with its call; activation, %; measured here: Max-Min RFU normalised activation; some inactives read as strong as hits;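 span of the calcium signal over five minutes; 0% = vehicle and 100% = native peptide agonist; compound fluorescence can raise it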
Numbers without * were called inactive; & = joins results of further samples.

SMILES	NPYLR7 ag	NPYLR7 ag max-min
O=C(CN1C(=O)C2C3C=CC(C3)C2C1=O)NC1CCCCC1 (configuration not stated)	4	2
S=c1n(C2CC2)cnn1CN1CCN(c2ncccn2)CC1	11	7
COC(C(=O)Nc1ccnn1C1CCN(Cc2cc(C(C)C)n[nH]2)CC1)c1ccccc1 (configuration not stated)	9	5
CCCCc1ccc(C(=O)Nc2cccc(C3SCC(=O)N3c3ccc(C)cc3C)c2)cc1 (configuration not stated)	-5	-4
COc1cc(N2C(=O)C3C4C=CC(C4)C3C2=O)c(OC)cc1Cl (configuration not stated)	-1	-3
NC(=O)C(NCC1(c2ccccc2)CC1)c1ccccc1 (configuration not stated)	1	-2
C=CCn1c(=O)c2c(nc3n(Cc4ccccc4)c(C)cn23)n(C)c1=O	-3	21
CCOc1ccc(CN2CCN(Cc3cccc4nonc34)CC2CCO)cc1 (configuration not stated)	-4	-4
CC1=C(C#N)C(C(F)(F)F)(C(F)(F)F)N=C(c2cccc(C)c2)N1	10	2
Cc1cc(Cn2cnc(-c3ccccc3)c2COCc2ccccc2)no1	23	12
Cc1cc(=O)[nH]c(-n2nc(C)c(CCC(=O)Nc3nnc(C)s3)c2C)n1	26	24
Cc1oc(-c2cccc(F)c2)nc1CC(=O)N1CCOC(c2ccccc2)C1 (configuration not stated)	20	27
O=C(NCc1ccccc1N1CCOCC1)Nc1cccc2cnccc12	-4	383
Cc1ccc(S(=O)(=O)Nc2ccc(-c3ccc(N4CCCC4)nn3)cc2)s1	2	2
Cc1ccc(-c2nc(Nc3ccccc3)c3ccc(Cl)cc3n2)cc1	0	3
CC(C)(C)c1ccc2c(c1)C(=O)c1ccccc1C2=O	-3	-8
Cn1c(=NC(=O)Cc2noc3ccccc23)sc2ccccc21	11	4
C(=Cc1ccco1)C=NN1CCN(C2c3ccccc3-c3ccccc32)CC1	-7	-7
Cc1cc(C)c(S(=O)(=O)NCc2ccc3c(c2)cc(C)n3C)c(C)c1	0	4
COCCn1c(-c2ccccc2)c[nH]c1=S	-8	-11
O=C(NC1CC1c1ccccc1)c1cccc(CN2CCCC2)c1 (configuration not stated)	2	1
COc1ccc(C(=O)Nc2ncccn2)cc1[N+](=O)[O-]	0	-4
COc1ccc(NC(C)=O)cc1NC(=O)CCn1c(=O)oc2ccc(Cl)cc21	9	14
CCOC(=O)c1[nH]c(C)c(C(=O)COC(=O)c2ccco2)c1C	12	5
COCCN(CCC(=O)N1CCN(c2ccccc2F)CC1)c1nc(C2CC2)nc2ccccc12	-2	5
Fc1cccc(Oc2cc(N3CCC(Cc4ccccc4)CC3)ncn2)c1	-7	-3
Cc1ccccc1CN1C(=O)COCc2ccc(-c3ccncc3)cc21	9	5
O=C(CSc1nc(=O)n(CCCO)c2c1CCC2)N1CCN(c2ccccc2)CC1	-6	-12
Cc1ccc(C(C2Sc3nc(C)nn3C2=O)N2CCCCC2)cc1 (configuration not stated)	0	0
Cc1ccc(-c2csc(C3C(=N)SCC3=O)n2)cc1 (configuration not stated)	7	3
Cc1nn(CCS(C)(=O)=O)c(C)c1C(C)O (configuration not stated)	3	2
CC(=O)OC1C(OC(C)=O)N(C)C(=O)N1C (configuration not stated)	1	6
COc1ccc(-c2cncc(C(N)=O)c2)cn1	4	-8
O=C(O)C1(O)CCN(c2nccc(CCC(F)(F)F)n2)CC1	6	5
O=C(Cn1cccn1)N1CCOC(Cc2ccc(F)cc2)C1 (configuration not stated)	14	3
C=CCN(Cc1ccco1)Cc1ccc(-c2ccn[nH]2)o1	1	14
N#Cc1ccccc1OCC(=O)Nc1ccnn1Cc1cccc(Cl)c1	1	-5
Cc1nc(N2CCC(NCC3C4CC5CC(C4)CC3C5)CC2)nc2cc(S(C)(=O)=O)ccc12 (configuration not stated)	15	0
O=c1[nH]c(SCc2ccc(C(F)(F)F)cc2)nc2c1cnn2CCO	5	6
COc1ccc(OC)c(S(=O)(=O)N2CCCCC2C(=O)OCCc2ccc(OC)c(OC)c2)c1 (configuration not stated)	0	-7
CCc1nc(C)c(C(=O)N2C[C@@H]3[C@H](C2)[C@H]2CC[C@@H]3O2)o1	2	0
N[C@@H]1CC[C@@H](NS(=O)(=O)c2c(Cl)cccc2Cl)C1	7	4
CNC(=O)CC(C)N(C)Cc1ccc(S(C)(=O)=O)cc1 (configuration not stated)	-1	-2
Cc1cc(C)c(C)c(S(=O)(=O)N2CCCC2C(N)=O)c1C (configuration not stated)	-2	-5
CCc1nn2c(ncc3c(=O)n(-c4ccccc4OC)ccc32)c1-c1ccc(F)cc1	8	6
NC(=O)c1ccc(S(=O)(=O)Nc2ccccc2OCC(F)(F)F)cc1	4	3
c1cc2c(c(-c3cc(N4CCOCC4)ncn3)c1)CCNC2	5	2
CC(=O)CSc1nnc(NC2CCCCC2)s1	5	12
CCOC(=O)c1ccc(N2CN=c3sc(=Cc4ccccc4)c(=O)n3C2)cc1	-1	-5
CC(=O)N(CN1C(=O)c2ccccc2C1=O)c1cccc(C)c1	-14	-20
CC(C)CNC(=O)C1(C)CCCCCN1C(=O)c1csnn1 (configuration not stated)	-4	-4
NS(=O)(=O)c1cccnc1N1CCOC(c2ccc(F)c(F)c2)C1 (configuration not stated)	8	4
CCN(CC)C1=C(c2c(C)[nH]n(-c3ccc(F)cc3)c2=O)C(=O)N(c2ccc(OC)c(OC)c2)C1=O	4	19
Cc1ccc(-c2cc(C(=O)N(C)C)c3ccccc3n2)c(C)c1	-1	0
O=C(CC1CC2CCC1C2)NCC(c1ccccc1Cl)N1CCCC1 (configuration not stated)	1	0
Cc1ccn2c(NC3CCCCC3)c(-c3cccc(OC(=O)c4cccc(C(F)(F)F)c4)c3)nc2c1	-3&16	3&14
Cc1cc(C)c(C)c(OCc2nc(CN(CCN3CCOCC3)C(=O)c3ccccc3)cs2)c1	9	8
O=C(NCc1ccc(F)cc1)c1cc(=O)c(OCc2ccccc2)co1	1	-1
O=C(Cn1cnc2nc(N3CCOCC3)ncc2c1=O)NCc1ccc(C(F)(F)F)cc1	-9	-9
Cc1ccc(CC(=O)Nc2nnc(-c3cc(C)n(C)n3)o2)cc1	-6	-8

Rewritten with each value named: four of the compounds above
> O=C(O)C1(O)CCN(c2nccc(CCC(F)(F)F)n2)CC1
- NPYLR7 ag: 6
- NPYLR7 ag max-min: 5

> Cn1c(=NC(=O)Cc2noc3ccccc23)sc2ccccc21
- NPYLR7 ag: 11
- NPYLR7 ag max-min: 4

> C=CCN(Cc1ccco1)Cc1ccc(-c2ccn[nH]2)o1
- NPYLR7 ag: 1
- NPYLR7 ag max-min: 14

> COc1ccc(C(=O)Nc2ncccn2)cc1[N+](=O)[O-]
- NPYLR7 ag: 0
- NPYLR7 ag max-min: -4

Complete entries, looked up by structure:
Profile of CCc1nn2c(ncc3c(=O)n(-c4ccccc4OC)ccc32)c1-c1ccc(F)cc1 = NPYLR7 ag = 8; NPYLR7 ag max-min = 6
Profile of NC(=O)c1ccc(S(=O)(=O)Nc2ccccc2OCC(F)(F)F)cc1 = NPYLR7 ag = 4; NPYLR7 ag max-min = 3

Further entries follow:
SMILES	NPYLR7 ag	NPYLR7 ag max-min
O=C(O)c1ccccc1CSc1ccc(N2CCCCC2)cc1	5	2
O=C(CCc1n[nH]c2c1CCCC2)N1CCC2(CCCO2)CC1	7	4
COc1ccc2c(c1)-c1sc(C(=O)NCc3cccc(OC(F)(F)F)c3)cc1CC2	4	-1
CCc1ccc(-c2nc(-c3c(N)n(C)c(=O)n(C)c3=O)cs2)cc1	8	4
C[C@@]12C(=O)OC(=O)[C@]1(C)[C@H]1CC[C@@H]2O1	-5	-11
Cc1nc2nc3ccn(CC4CCCO4)c(=O)c3c(-c3cccc(Cl)c3)n2n1 (configuration not stated)	0	-2
O=C(NCc1nnnn1-c1ccc(Cl)cc1)c1ccccc1C(F)(F)F	4	1
Clc1ccc(CSC(Cn2ccnc2)c2ccc(Cl)cc2Cl)cc1 (configuration not stated)	-13&2&4	2&-13&2
COc1cccc(-n2cnnc2SCC(=O)NC(C)C(C)C)c1 (configuration not stated)	-3	-8
CC(C)(O)C#Cc1cccc(C(=O)N2CCCC(OCc3cccnc3)C2)c1 (configuration not stated)	-4	-4
O=C(Cc1ccc2c(c1)OCO2)N1CCc2onc(-c3cccc(F)c3)c2C1	21	19
O=C1CCC2(CCN1)CCN(S(=O)(=O)c1ccc3ccccc3c1)CC2	0	-4
COC(=O)CSc1nnc(-c2cc(-c3ccccc3)nc3ccccc23)n1CC1CCCO1 (configuration not stated)	-2	5
COc1cc(NC(=O)c2ccc(-c3cnn(C)c3)c3ccoc23)cc(OC)c1OC	6	8
Fc1ccc(-c2noc3nc(NCCN4CCCC4)ccc23)cc1	-4	-6
COCCN(CC(=O)N(CCc1ccc(OC)c(OC)c1)Cc1ccc(C)o1)S(=O)(=O)c1ccc(C)cc1	-2	1
Cc1cccc(C)c1-c1nc2cc(Cl)ccc2c(=O)n1Cc1ccccc1	7	6
CCC(=O)Nc1ccc(NC(=O)Cn2nc(C)c(C)c2C)cc1Cl	-2	-5
CCOC(=O)c1csc(NC(=O)c2ccnn2CC)n1	3	4
O=S(=O)(NC(C1CC1)C1CC1)c1ccc(-c2ccccc2)cc1	3	2
CC[C@H]1OC(=O)[C@H](C)[C@@H](O[C@H]2C[C@@](C)(OC)[C@@H](O)[C@H](C)O2)[C@H](C)[C@@H](O[C@@H]2O[C@H](C)C[C@H](N(C)C)[C@H]2O)[C@](C)(O)C[C@@H](C)C(=O)[C@H](C)[C@@H](O)[C@]1(C)O	-1&-7&-2	-9&-12&-3
CN(C)CCNc1nc(-c2cnn(Cc3ccccc3)c2)c2sccc2n1	6	1
NC(c1ccc(F)cc1)C1CCCO1 (configuration not stated)	10	4
CSc1ccc(CN2C(=O)CON=C2Cc2ccccc2)cc1	5	1
CC(C)CN1C[C@H](Oc2ccccn2)[C@H]2C[C@@H]1Cc1c2[nH]c2ccccc12	24	22
CC(C)(C)CC(=O)N1CCN(c2nc(Cc3ccccc3)nc3cc(Cl)ccc23)CC1	5	14
COc1ccccc1CN1C(=O)C2C3C=CC(C3)C2C1=O (configuration not stated)	-11	-14
C=CCN(CC(=O)N1N=C(c2ccc(C)cc2C)CC1c1ccc(C)cc1)C1CCCC1 (configuration not stated)	1	9
C=CCn1c(=O)c2c(nc3n(CCc4ccc(OC)c(OC)c4)c(C)cn23)n(C)c1=O	8	3
Cc1ccc(NC(=O)Nc2c(C)nc3sccn3c2=O)cc1C	0	-1
COc1ccc2cc(C(=O)NC(C)=O)c(=Nc3ccccc3F)oc2c1	-4	-7
Cc1nc(-c2ccccc2)sc1C(=O)N(C)C1CCS(=O)(=O)C1 (configuration not stated)	1	0
O=C(NCCn1ncc2c(=O)n(Cc3ccc([N+](=O)[O-])cc3)cnc21)c1ccccc1C(F)(F)F	0	-7
CCOC(=O)c1c(N)c(C(=O)c2ccc(C)cc2)n2ccccc12	-2	-7
C#CCn1c(=NC(=O)c2ccc3ncsc3c2)sc2cc(S(N)(=O)=O)ccc21	6	0
CC(C)C(=O)Oc1ccc(NC2=NS(=O)(=O)c3ccccc32)cc1	-2	-3
CC1CN(S(=O)(=O)c2ccccc2Cl)CCO1 (configuration not stated)	-4	-3
CC(C)(C)c1ccc(C(=O)N2CCC2(C)C(=O)NS(C)(=O)=O)cc1 (configuration not stated)	3	0
O=S(=O)(Nc1ncccn1)c1ccccc1	-3	-3
CN1CCN([C@H]2CN(Cc3cn[nH]c3-c3cccc(F)c3)C[C@@H]2O)CC1	0	0

In the list so far, three have a tert-butyl group:
SMILES	NPYLR7 ag	NPYLR7 ag max-min
CC(C)(C)c1ccc2c(c1)C(=O)c1ccccc1C2=O	-3	-8
CC(C)(C)CC(=O)N1CCN(c2nc(Cc3ccccc3)nc3cc(Cl)ccc23)CC1	5	14
CC(C)(C)c1ccc(C(=O)N2CCC2(C)C(=O)NS(C)(=O)=O)cc1 (configuration not stated)	3	0

The list goes on:
SMILES	NPYLR7 ag	NPYLR7 ag max-min
CCC(C)C(NC(=O)Nc1c(Cl)cccc1Cl)C(=O)Nc1nnc(-c2cccc(Cl)c2)s1 (configuration not stated)	9	0
CC(=O)Nc1cnc(-c2ccccc2F)cn1	1	-1
CN(c1ccccc1)S(=O)(=O)c1cn(C)c(=O)n(C)c1=O	5	3
CSCCC(=O)NC1CCCN(CCCc2ccccc2)C1 (configuration not stated)	-7	-9
CCc1cc(=O)n(CC(=O)Nc2cccc(C)c2C)c(-n2nc(C)cc2C)n1	0	-2
COCCN(Cc1c(-c2ccccc2)noc1N1CCCCC1C)C(=O)c1cccc(F)c1 (configuration not stated)	9	13
Cc1ccc(C(CNC(=O)c2cccc3ccnn23)N2CCOCC2)o1 (configuration not stated)	1	-1
CN(Cc1cccnc1)C(=O)CC1C(=O)NCCN1Cc1ccc(-c2ccccc2)cc1 (configuration not stated)	19&-1	11&-3
CNC(=O)[C@@H]1C[C@H]2CN(CCOC)C(=O)c3cccc(c32)N1C(=O)c1cc(C)oc1C	5	12
CN(CC(=O)NC1CCCCCCC1)Cc1nc(-c2cccnc2)no1	-3	-1
O=C(N[C@@H]1CCCCC1NC(=O)C1CCCN(C(=O)/C=C/c2ccccc2)C1)c1ccc(F)cc1 (some centres not stated)	-3	-2
CC12CCC(C(=O)N3CCCCC3)(OC1=O)C2(C)C (configuration not stated)	-2	-5
O=c1c2nnn(Cc3ccccc3F)c2ncn1Cc1ccccc1Cl	9	11
CSc1ccc(C2c3[nH]c4ccccc4c3CCN2C(=O)c2csc(C(C)=O)c2)cc1 (configuration not stated)	6	4
O=C1OC(/C=C/c2ccccc2)=NC/1=C/c1ccc2c(c1)OCO2	-3	-7
Fc1ccc(-c2nc(-c3ccc(C#Cc4ccccc4)s3)[nH]c2-c2ccc(F)cc2)cc1	7	5

Some of the compounds tested (hit frequency here may not be typical).
